AmpC inh no det: AmpC beta-lactamase inhibition, detergent-free assay. hit rate 1.8% among 71,000. AmpC nitrocefin hydrolysis, absorbance 480 nm, no detergent; potencies from a single point are estimates. AID 585. Potency, µM (series often up to 28.7 µM), inactives show at the top dose activity change, negative = inhibition; active = falling curve, for most hits resting on a single point; inconclusive = weak or doubtful change; inactive = flat or rising curve; note: % of control where 0% means no effect; about half of the hits show no inhibition at the top dose; a quarter of the inactives give rising signals
Target sequence (P00811 whole entry, looked up): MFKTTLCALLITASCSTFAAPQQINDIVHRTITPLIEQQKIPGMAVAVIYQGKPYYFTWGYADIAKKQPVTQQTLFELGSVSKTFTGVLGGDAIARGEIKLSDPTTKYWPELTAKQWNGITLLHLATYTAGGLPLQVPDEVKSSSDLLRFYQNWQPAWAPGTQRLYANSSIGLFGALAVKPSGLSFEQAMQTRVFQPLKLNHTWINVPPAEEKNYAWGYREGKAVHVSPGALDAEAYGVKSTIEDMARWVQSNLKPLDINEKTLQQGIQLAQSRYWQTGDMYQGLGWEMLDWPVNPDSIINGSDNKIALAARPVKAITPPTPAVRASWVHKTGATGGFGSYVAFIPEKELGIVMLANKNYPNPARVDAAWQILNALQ
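AmpC in 20 mM phosphate buffer pH 7.0 was preincubated 15 min at room temperature with compounds. Nitrocefin (800 uM stock) was then added and hydrolysis followed at 480 nm every 20 s for 4 min.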
An asterisk follows results filed as active; ? = inconclusive; [ ] = another dose, or the depositor's remark. Potency is the fitted concentration of half-maximal effect. These rows are one share of the data, so the mix of outcomes need not match the whole.

SMILES	AmpC inh no det
CS(=O)(=O)N1CCCC(C(=O)NCc2cccs2)C1 (stereo not drawn)	-1%
O=C(NC1CCCCNC1=O)c1ccc(Cl)cc1 (stereo not drawn)	-4%
COc1ccccc1-n1cnc2cc(C(=O)NCc3ccco3)ccc21	2%
COc1ccc(C(=O)N2CCCC(c3nc(-c4cccs4)no3)C2)cc1OC (stereo not drawn)	89%
CN1CCN(Cc2cc(=O)oc3cc4c(cc23)CCC4)CC1	14%
O=C(CC1CCCCC1)c1c(O)c2ccccc2oc1=O	-22%
Cc1csc(C(C#N)C(=O)c2ccc(S(=O)(=O)N3CCCC3)cc2)n1 (stereo not drawn)	-18%
Cc1ccc(-c2cc(=O)[nH][nH]2)c(C)c1	-1%
O=C1c2ccccc2C(Nc2ccc3c(c2)OCCO3)N1c1ccc(Cl)cn1 (stereo not drawn)	2%
CCOc1ccc(-c2nc(S(=O)(=O)c3ccccc3)c(NCc3cccnc3)o2)cc1	47%
CCCCn1c(O)c(C(CC)=NCCCN(C)C)c(=O)[nH]c1=O	-6%
CCOC(=O)C1=C(C)Nc2nc(SCC(=O)OC)nn2C1c1cc(F)cc(F)c1 (stereo not drawn)	24%
CCCc1cc(=O)[nH]c(SCCOc2ccc(Cl)cc2)n1	-6%
Cn1ccnc1C(O)(c1nnc(-c2ccccc2)o1)C(F)(F)F (stereo not drawn)	-1%
Cc1ccc(S(=O)(=O)Oc2ccc(N=Nc3ccc(-c4ccc(N=Nc5c(O)ccc6cc(S(=O)(=O)O)cc(S(=O)(=O)O)c56)c(C)c4)cc3C)cc2)cc1	0.32µM*
CCCCC/C=C\C/C=C\C/C=C\C/C=C\CCCC(=O)Nc1ccc(O)cc1	10µM*
COc1cc(CO)cc(-c2cc(CO)cc(OC)c2OC)c1OC	-1%
CCOC(=O)c1cc2c(=O)n3ccccc3nc2n(Cc2ccc(Cl)cc2)c1=N	60%
COc1ccc(Nc2nnc(Cc3ccccc3)c(=O)[nH]2)c(OC)c1	-18%
c1nc(N2CCC3(CC2)OCCO3)c2[nH]cnc2n1	-2%
COC(=O)[C@@]1(Cc2ccccc2)[C@H]2c3cc(C(=O)N4CCCC4)n(C)c3C[C@H]2CN1C(=O)c1ccccc1	181%
O=C(CN1C(=O)C2CC=CCC2C1=O)OCCN1C(=O)c2ccccc2C1=O (stereo not drawn)	2%
O=C(CSc1nnnn1-c1cccnc1)NCc1cccs1	-8%
Cc1nc(-c2ccc(S(=O)(=O)N3CCCCCC3)cc2)cs1	4%
O=C(O)CSC1c2ccccc2C(=O)N1Cc1ccccc1 (stereo not drawn)	-6%
CC12CCC(C(=O)NCC3CCCO3)(OC1=O)C2(C)C (stereo not drawn)	1%
O=C(Nc1ccc(-c2nc3ccccc3[nH]2)cc1)c1ccco1	-21%
Cc1csc(NC(=O)c2nc3nc(C)cc(C)n3n2)n1	-5%
CCOc1ccc2ccccc2c1/C=N/n1cncn1	17%
c1ccc(-c2ccccc2)cc1	-11%
CC(C)Oc1ccc(CNC2CCOC(C)(C)C2)cc1 (stereo not drawn)	-16%
CC(C)NC(=O)N1CCC2(CC1)CCN(C(=O)c1cccn1C)CC2	15%
CCCc1ccc(OCC(=O)O)cc1	-1%
Cc1noc(C)c1COc1cccc(C(=O)Oc2ccc3c(c2)OCO3)c1	18%
COc1ccc(S(=O)(=O)N(CCCN2CCCC2=O)Cc2cc3cc(C)c(C)cc3[nH]c2=O)cc1	156%
O=C(NCc1ccco1)c1nn(-c2ccccc2)c(=O)c2ccccc12	14%
N#Cc1c2n(c3c(=O)n(Cc4ccccc4)cnc13)CCCC2	13%
Cc1cc(C)n(-c2nc3ccccc3nc2N2CCN(C(=O)c3ccc(F)cc3)CC2)n1	114%
O=C(CSc1nc2c(c(C(F)(F)F)n1)CCc1ccccc1-2)NCc1ccco1	-4%
CCN(CC)CCn1c(-c2ccccc2)nc2c(NCCOC)nc(C)nc21	26%
COC(=O)c1ccc(C(NC(=O)OCc2ccccc2)/C(F)=C/[C@@H](C)C(=O)NCc2ccc(OC)c(OC)c2)cc1 (stereo partly drawn)	92%
CCCCCn1c(=NC(=O)c2ccco2)c(C(=O)OCC)cc2c(=O)n3ccccc3nc21	48%
CCOC(=O)C1=C(C)NC(C)=C(C(=O)OCC)C1	22%
N#Cc1ccc(CN2CCCC3(CCN(C(=O)c4cccc(F)c4)CC3)C2)cc1	65%
Cc1occc1C(=O)N1CCC2(CC1)OCCO2	0%
Cc1cc(C)nc(SCc2nnc(SCC(=O)Nc3ccc(C)c(C)c3)n2Cc2ccco2)n1	119%
CSc1nc2cc(S(=O)(=O)N3CCOCC3)ccc2s1	10%
NC(=O)c1c(N)sc(=S)n1CC1CCCO1 (stereo not drawn)	-12%
CCC(=O)Nc1c(C)nn(C(=O)CC)c1C	-17%
CC(C)OC(=O)CSc1nnc(-c2ccncc2)n1N	-10%
CCN(c1ccccc1)c1cc(NC)[n+](C)c(C)n1	23%
O=C(OCC(=O)c1c[nH]c2ccccc12)c1ccco1	-12%
CCC[C@H]1C[C@H](C(=O)N[C@H]([C@@H]2O[C@H](SC)[C@@H](O)[C@H](O)[C@@H]2O)[C@H](C)O)N(C)C1	12%[12.8 µM]
Cc1cccc(-c2c3c(=O)n(C)c(=O)n(C)c3cn2-c2ccc(O)cc2)c1	-5%
Cc1ccc(C)c(-n2c(CNC(=O)c3ccco3)nnc2SCC(=O)Nc2nnc(C)s2)c1	40%
Cc1ccc(NC(=O)C2CCCN(S(=O)(=O)c3cnc[nH]3)C2)c(Br)c1 (stereo not drawn)	8%
COc1cccc(N2C(=O)CC(N3CCC(C(N)=O)(N4CCCCC4)CC3)C2=O)c1 (stereo not drawn)	1%
O=c1[nH]c(CN2CCC(c3nc4ccccc4s3)CC2)nc2sc3c(c12)CCC3	8%
CC(=O)CCc1ccccc1	-19%
COC(=O)[C@@]1(Cc2ccc(F)cc2)[C@H]2c3cc(C(=O)N4CCCC4)n(CCSCCO)c3C[C@H]2CN1C(=O)c1ccccc1	154%

Later entries.
SMILES	AmpC inh no det
COC(=O)[C@@H]1C[C@@]1(C)[C@@H](NC(=O)OCc1ccccc1)c1ccccc1	10%
c1ccc(Cc2nnc3sc(-c4ccc5c(c4)OCCO5)nn23)cc1	17%
COC1CCCCC1NS(=O)(=O)c1ccccc1 (stereo not drawn)	1%
COC(=O)C1CN(S(=O)(=O)c2ccc(C)cc2)CCN1S(=O)(=O)c1ccc(C)cc1 (stereo not drawn)	23%
CCCCn1c(CN2CCN(C(=O)OCC)CC2)nc2c1c(=O)[nH]c(=O)n2C	16%
Cc1cccc(NC(=O)C23CCC(C)(/C(=N/O)C2)C3(C)C)c1 (stereo not drawn)	-2%
NC(N)=NC(N)=Nc1ccc(S(=O)(=O)O)cc1	2%[5.75 µM]
Cn1c(=O)oc2cc(S(=O)(=O)NC3CCCCCCC3)ccc21	17%
CCN(CC)C(=O)C1=C(C)Nc2nnnn2C1c1cccnc1 (stereo not drawn)	-6%
O=C(NCc1cccnc1)C1CCCCN1S(=O)(=O)c1ccc(F)cc1 (stereo not drawn)	0%
NC(=O)CSc1nnc(COc2ccccc2)n1C1CCCCC1	66%
CN(CC(=O)NCCC1=CCCCC1)S(=O)(=O)c1ccc2c(c1)CCC(=O)N2	65%

A draw from above in order of formula weight, ascending.
SMILES	AmpC inh no det
Cc1cccc(NC(=O)C23CCC(C)(/C(=N/O)C2)C3(C)C)c1 (stereo not drawn)	-2%
Cn1c(=O)oc2cc(S(=O)(=O)NC3CCCCCCC3)ccc21	17%
NC(=O)CSc1nnc(COc2ccccc2)n1C1CCCCC1	66%
c1ccc(Cc2nnc3sc(-c4ccc5c(c4)OCCO5)nn23)cc1	17%
O=C(NCc1cccnc1)C1CCCCN1S(=O)(=O)c1ccc(F)cc1 (stereo not drawn)	0%

Continued.
SMILES	AmpC inh no det
CC1(C)CC(=O)c2cnn(-c3nc4ccccc4[nH]3)c2C1	-16%
COc1ccc(NC(=O)c2oc3ccc(S(=O)(=O)N4CCC5(CC4)OCCO5)cc3c2C)cc1	85%
CCCc1cc(=O)[nH]c(SCC(=O)N2CCN(c3ccc(F)cc3)CC2)n1	13%
Cc1cc2n(n1)C(c1ccccc1)Nc1ccccc1-2 (stereo not drawn)	10%
Cc1ccccc1NC(=O)CC1SCCNC1=O (stereo not drawn)	4%
COc1ccc(S(=O)(=O)N(CCCN2CCOCC2)Cc2ccc(OC)c(OC)c2)cc1	100%
CC1(C)Cc2ccccc2-c2nnc(-c3cccc(O)c3)n21	-6%
Cn1c(=O)n(CC(=O)OCc2ccccc2)c(=O)c2c1nc1n2CCCN1C1CCCCC1	66%
Cc1ccc(C)c(NC(=O)CS(=O)(=O)c2cn(C)c3ccccc23)c1	5%
CCCCn1c(CN2CCN(c3cccc(Cl)c3)CC2)nc2c1c(=O)[nH]c(=O)n2C	116%
CCOc1ccccc1-n1c(COc2ccccc2)nnc1SCC(N)=O	49%
Cn1c(=O)c2c(ncn2CCCc2ccccc2)n(C)c1=O	17%

A second format for some results above.
> COc1ccc(S(=O)(=O)N(CCCN2CCOCC2)Cc2ccc(OC)c(OC)c2)cc1
  AmpC inh no det = 100%

> Cc1ccccc1NC(=O)CC1SCCNC1=O (stereo not drawn)
  AmpC inh no det = 4%

Going on with the list:
SMILES	AmpC inh no det
CN(C)S(=O)(=O)c1ccc(S(=O)(=O)N(CC(=O)Nc2ccccc2)CC2CCCO2)cc1 (stereo not drawn)	49%
Cn1c(SCC(N)=O)nnc1C1CCN(C(=O)NCc2ccccc2)CC1	-2%
O=C(O)C(c1ccccc1)C1(O)CCCC1 (stereo not drawn)	7%
COc1ccccc1C1CC(=O)Nc2cc3c(cc21)OCCO3 (stereo not drawn)	-4%
CS(=O)(=O)N1CCCC(C(=O)NCCCN2CCc3ccccc3C2)C1 (stereo not drawn)	-10%
Cc1cc(SCC(N)=O)nc(SCC(=O)c2ccccc2)n1	-5%
Cc1ccc(NC(=O)COC(=O)CN2CSCC2=O)cc1C	8%
COc1ccc(CCn2c(=N)c(C(=O)N3CCN(C)CC3)cc3c(=O)n4ccccc4nc32)cc1	49%
CCOC(=O)CCn1nc(-c2ccccc2)cc1N	11%
CCOC(=O)c1cnc(-c2cccc(OC)c2)[nH]c1=O	1%
Cc1cc2ncc(-c3ccc(Cl)cc3)c(N)n2n1	-11%
O=C(Cc1cccs1)N1CCC(c2nc3c(nnn3Cc3ccc(F)cc3)c(=O)[nH]2)CC1	77%
O=S(=O)(NCCNS(=O)(=O)c1cccs1)c1cccs1	-11%
O=C(CN1CCc2ccccc21)Nc1ccc2c(c1)OCO2	-14%
CCCC(=O)c1cc(F)c(N2CCN(CCC#N)CC2)cc1C	53%
CC1(C)CC(=O)c2cnc(N3CCc4ccccc4C3)nc2C1	7%
Oc1ccc2ccccc2c1C=NCc1cn2ccsc2n1	9%
COc1ccc2[nH]cc(CCNc3ccnc(-c4ccc(N(C)C)cc4)n3)c2c1	-6%
COc1ccc(-n2nnnc2SCC(=O)Nc2nnc(C)s2)cc1OC	-17%
CCOc1ccccc1Oc1c(C)oc2cc(OC(=O)N3CCOCC3)ccc2c1=O	27%
COc1ccc(F)cc1S(=O)(=O)Nc1ccc(C)cc1	11%
CCOC(=O)Nc1cccc(NC(=O)c2cc(OC)cc(OC)c2)c1	-6%
CC(C)NC1(C(N)=O)CCN(Cc2ccccc2)CC1	-4%[5.75 µM]
OC(COCc1ccccc1)CN1CCCC1 (stereo not drawn)	-14%

4 entries from above, field by field:
COc1ccc2[nH]cc(CCNc3ccnc(-c4ccc(N(C)C)cc4)n3)c2c1
- AmpC inh no det: -6%
COc1ccc(F)cc1S(=O)(=O)Nc1ccc(C)cc1
- AmpC inh no det: 11%
OC(COCc1ccccc1)CN1CCCC1 (stereo not drawn)
- AmpC inh no det: -14%
CCOC(=O)Nc1cccc(NC(=O)c2cc(OC)cc(OC)c2)c1
- AmpC inh no det: -6%

(further entries)
SMILES	AmpC inh no det
CC(=O)Nc1ccc(S(=O)(=O)Nc2cccc(NC(=O)C(C)(C)C)c2)cc1	-3%
COc1ccc(-n2nc(C(=O)N3CCC(C#N)CC3)c3c4ccccc4n(C)c3c2=O)cc1	1%
CCOC(=O)N1CCN(C(=O)CN2C(=O)CC(C)(C)S(=O)(=O)c3ccccc32)CC1	15%
Cc1cc2ncn(C(=O)c3c(-c4ccccc4)noc3C)c2cc1C	68%
CCOC(=O)c1ccc(NC(=O)C2CCN(S(=O)(=O)CC)CC2)cc1	25%
O=C(On1c(-c2ccccc2)nc2ccccc2c1=O)c1ccco1	-4%
CCO[Si](CCCN)(OCC)OCC	-10%
COc1ccccc1-c1nnc(NC(=O)c2ccc(S(=O)(=O)N(C)C)cc2)o1	4%
COc1cccc(-c2nc3n(n2)C(c2cccs2)C(C(=O)Nc2cccnc2)=C(C)N3)c1 (stereo not drawn)	61%
Cc1cc(NC(=O)CN2CCC(n3nnc4cc(C(F)(F)F)ccc43)CC2)no1	38%
Cc1nnc(SCCC(C)C)[nH]c1=O	14%
Cc1nc2sc(C(=O)O)c(N)c2c2c1COC(C)(C)C2	-7%
Cc1ccc(-c2nnc(N3CCN(C(=O)CN4C(=O)c5ccccc5C4=O)CC3)c3ccccc23)cc1	-1%
Cc1c(NC(=O)CSC2=C(C#N)C(c3ccccc3F)CC(=O)N2)c(=O)n(-c2ccccc2)n1C (stereo not drawn)	?
O=C(c1ccc2snnc2c1)N1CCSCC1	-5%
COC(=O)C1(S(=O)(=O)C2(C(=O)OC)CCCC2)CCCC1	9%
COc1ccc(NC(=O)N2CC[C@@]3(CCCN(C(=O)c4ccncc4)C3)C2)cc1	-1%

No new results follow: an excerpt of the list.
SMILES	AmpC inh no det
Cc1nc2sc(C(=O)O)c(N)c2c2c1COC(C)(C)C2	-7%
Cc1ccc(-c2nnc(N3CCN(C(=O)CN4C(=O)c5ccccc5C4=O)CC3)c3ccccc23)cc1	-1%
Cc1c(NC(=O)CSC2=C(C#N)C(c3ccccc3F)CC(=O)N2)c(=O)n(-c2ccccc2)n1C (stereo not drawn)	?
